GIV-Gai inh – inhibitors of GIV GBA-motif binding to rat Galpha-i3; P08753; Galpha-i3/FITC-GIV peptide fluorescence polarization, 90 min; active compounds read low; scaled: aluminum fluoride 0%, vehicle 100%; percent of control (FP), % (no concentration beside the values); 210,000 tested, 0.42% active; AID 1224905;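 active = replicate mean at 85% of control or lower, very high polarization wells dropped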;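 also: wells of about 15 µL received 100 nL stock; the first replicate is given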
Target sequence (P08753 whole entry, looked up): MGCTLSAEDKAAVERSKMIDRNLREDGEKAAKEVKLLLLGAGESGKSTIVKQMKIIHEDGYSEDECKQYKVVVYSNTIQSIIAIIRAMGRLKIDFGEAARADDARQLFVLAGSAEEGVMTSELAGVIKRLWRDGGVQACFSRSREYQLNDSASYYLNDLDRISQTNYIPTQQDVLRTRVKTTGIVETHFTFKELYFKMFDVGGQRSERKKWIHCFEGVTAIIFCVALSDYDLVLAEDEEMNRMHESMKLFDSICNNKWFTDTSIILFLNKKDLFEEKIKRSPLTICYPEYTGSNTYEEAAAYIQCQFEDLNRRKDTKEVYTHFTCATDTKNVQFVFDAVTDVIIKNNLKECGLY
HCMV UL50-53 inh – inhibitors of HCMV UL50-UL53 nuclear egress complex interaction | 190,000 tested, 0.15% active | inhibition, % (concentration not given with the values) | HTRF UL50-UL53 interaction, normalized percent inhibition;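 active = both replicates at 50% or more, plus weaker picks with an unusually low signal ratio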;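 also: stock transfer was 100 nL into about 20 µL; 0% = negative control wells and 100% = wells with untagged competitor protein; inactives centre near -12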
Sa growth inh – S. aureus growth inhibition | S. aureus RN4220 growth, OD600, 20 h, 42 °C; active compounds read low | relative growth, % (test concentration not listed) | 170,000 tested, 0.53% active | AID 720641;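 active = growth at 42 °C up to 50% and 20 or more points under that at 30 °C, or under 10% at both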;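 also: 300 nL library stock went into each well; scaled to the means of positive and negative controls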
Sa growth inh second temp – also measured in Sa growth inh; calls as there; relative growth, %; measured here: growth at 30 °C;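 optical density after 20 h as mean of two plates; 100% = untreated growth and lower means inhibition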
Starred values were filed as active, the others as inactive; / = no result given.

SMILES	GIV-Gai inh	HCMV UL50-53 inh	Sa growth inh	Sa growth inh second temp
CC1CCCCC1NC(=O)COC(=O)/C=C/c1ccc2c(c1)OCO2 (stereo unspecified)	/	-39	80	95
CC(C)Cc1cc(-c2nnc3sc(-c4cc5ccccc5o4)nn23)n[nH]1	111	-46	/	/
Cc1cccc(C)c1Nc1c(-c2ccccc2F)nc2cccc(C)n12	102	-6	87	91
COc1ccc(C/C(N)=N/O)cc1	107	-9	123	91
Cn1ccc2c(OCC(=O)Nc3ccc(OC(F)(F)F)cc3)cccc2c1=O	98	/	110	88
COc1ccc(-c2noc(-c3ccc(NCc4ccc(C)cc4)c([N+](=O)[O-])c3)n2)cc1OC	98	-32	96	82
O=C(NC1CC1)C1c2ccccc2C(=O)N2CCc3ccccc3C12 (stereo unspecified)	93	2	105	85
OCCNc1nc(-c2cccnc2)nc2ccccc12	103	-4	113	86
CCCSc1ncc(Cl)c(C(=O)N2CCN(c3cccc(Cl)c3)CC2)n1	108	-5	98	89
CCO/C=N/S(=O)(=O)c1ccccc1	/	-14	70	85
CCN(c1ccccc1)c1nc2ccccc2n2cnnc12	105	-15	102	86
CC(=O)Oc1ccc2c(c1)oc(=O)c1ccccc12	106	-6	100	90
O=C(N/N=C/c1cccc(S(=O)(=O)N2CCOCC2)c1)C1=COCCO1	/	-5	97	102
CCc1ccc(NS(=O)(=O)c2ccc3[nH]cc(C(=O)N4CCCCC4)c(=O)c3c2)cc1	110	3	85	96
Cc1cc(NN)nc(-c2ccccc2O)n1	101	-8	113	94
CCO/C=N/c1oc(-c2ccccc2)nc1C#N	114	-27	82	42
CCSc1nc2ccccc2n1CCOc1ccccc1	102	-13	78	59
Cn1nc(C(=O)N(Cc2ccco2)C2CCCCC2)c2c1-c1ccccc1SC2	99	/	98	89
Cc1ccc(N2C(=O)CSC23C(=O)Nc2ccccc23)cc1Cl (stereo unspecified)	95	-14	/	/
CC12CN(C(=O)c3ccccc3)CC(C)(CN(C(=O)c3ccccc3)C1)C2=O	/	-5	109	93
CC(C)NC(=O)c1sc(N2CCCC2)nc1N	104	-24	/	/
CCC(C(=O)N1CCc2ccccc21)n1nc(-c2ccc(C)c(C)c2)ccc1=O (stereo unspecified)	95	-12	/	/
CCN1C(=O)C2(c3ccccc31)c1c(oc3ccc(C)cc3c1=O)C(=O)N2CCCOC(C)C (stereo unspecified)	104	-4	100	89
Cc1nn2c(=O)cc(CSc3nnc(-c4ccc5c(c4)OCO5)o3)nc2s1	102	-12	/	/
O=C(Nc1nc(-c2ccccc2)cs1)C1CC1	/	-34	104	89
CCOC(=O)c1cnc2ccc(C(=O)OC)cc2c1NCCCO	106	-7	90	81
COC(=O)c1ccc2c(=O)n(CC3CCCO3)c(SCC(=O)Nc3ccc(OC)cc3OC)nc2c1 (stereo unspecified)	101	-1	82	83
N#CC(C#N)=CNc1ccncc1	/	-19	95	95
CCOC(=O)c1cn(CC(=O)Nc2cccc(Cl)c2C)nn1	111	-21	113	89
COc1cccc(/C=N/n2cnc3cc(C)c(C)cc32)c1OC	/	22	92	102
CC(NC(=O)C12CC3CC(CC(C3)C1)C2)C(c1ccccc1)N1CCN(C)CC1 (stereo unspecified)	/	-3	107	91
Cc1ccc(CNc2nc3ccc(Cl)cc3n3nnnc23)cc1	114	-8	98	86
COc1ccccc1C(C)NCC(=O)Nc1ccccc1C(=O)NC1CC1 (stereo unspecified)	/	-24	110	85
CC(Nc1ncnc2c1oc1ccccc12)C1CC2CCC1C2 (stereo unspecified)	/	-19	33	34
N=c1n(CCO)c2ccccc2n1Cc1ccc(Cl)cc1	109	/	124	63
CCOC(=O)CN1C(=O)C2C3c4ccccc4C(c4ccccc43)C2C1=O (stereo unspecified)	102	-3	101	92
Brc1ccc(C(NCc2ccccc2)c2nnc(-c3ccccc3)o2)cc1 (stereo unspecified)	96	-8	/	/
CCn1c(C(=O)O)c(CC(=O)N2CCN(c3ccccc3F)CC2)c2ccccc21	100	-20	/	/
Cc1ccc(C)[n+](C)c1	120	4	81	83
COc1ccc(NC(=O)CC(C)NCc2ccc(CN3CCCC3)cc2)cc1 (stereo unspecified)	/	-16	79	93
COc1ccc(-c2cc(C(F)(F)F)nc(SCC(=O)N3CCN(c4ccc(F)cc4)CC3)n2)cc1	107	-18	/	/
O=c1n(Cc2cccc(C(F)(F)F)c2)c2ccccc2c2nc(-c3ccccc3)nn12	102	-37	99	88
COc1ccccc1NC(=O)C1=C(C)Nc2nc(SCc3ccccc3)nn2C1c1ccccn1 (stereo unspecified)	106	-16	102	89
CC(=O)Nc1sc2c(c1CN1CCCC1)CCCC2	/	17	116	100
O=C(c1cn(Cc2ccccc2)nc1-c1ccccc1)N1CCN(CCO)CC1	/	-9	84	93
CCOC(=O)c1cc(OC(=O)c2ccccc2C)n(-c2ccccc2)n1	102	-18	93	83
CCCn1c(SCC(=O)NC(C)(C#N)C(C)C)n[nH]c1=O (stereo unspecified)	/	-7	80	96
CCCN1C(=O)c2ccc(C(=O)O)cc2C1=O	106	/	98	92
N#Cc1cccc(C(=O)OCC(=O)NC2CC2)c1	/	-16	74	91
O=C(/C=C/c1cccs1)Oc1ccc(Cl)cc1	97	-14	107	90
CCc1ccccc1NC(=O)CSc1ncc2c(n1)-c1ccccc1N(Cc1ccccc1)S2(=O)=O	175	-23	/	/
Cc1onc(-c2ccccc2)c1N	95	-9	100	98
O=C(O)c1cc2ccccc2c(=O)[nH]1	104	-23	102	71
CC(C)(C)c1ccc(C(=O)Nc2ccc(OCc3cc(=O)n4ccsc4n3)cc2)cc1	101	-39	96	87
Cc1cc(Cl)nc(SCC(=O)c2ccccc2)n1	103	-1	91	73
OC(COCc1ccccc1)Cn1c2ccccc2c2ccccc21 (stereo unspecified)	109	-18	112	83
CSc1ncccc1C(=O)Nc1ccc2c(C)cc(=O)oc2c1	/	-20	69	91
Cc1ccc(C)c(NC(=O)N2CCN(c3nc4cc(F)ccc4n4cccc34)CC2)c1	102	-34	/	/
COc1ccc(Nc2c3c(nc4ccccc24)CCC3)cc1Cl	104	-33	90	75
O=C(Nc1cccc(O)c1)c1cc(-c2ccc3c(c2)OCO3)on1	100	-3	92	83

The listing continues.
SMILES	GIV-Gai inh	HCMV UL50-53 inh	Sa growth inh	Sa growth inh second temp
COc1cccc(COC(=O)c2nc3nc(C)cc(C)n3n2)c1	/	-11	90	93
N#Cc1c(Cl)cccc1I	104	-40	98	86
COc1ccc(-c2onc(C)c2C)cc1S(=O)(=O)N1c2ccccc2CC1C (stereo unspecified)	102	/	75	95
CC(C)C(=O)Nc1nnc(S(=O)(=O)N2CCCCCC2)s1	97	-9	105	92
COc1ccc(OCC(O)Cn2c(NCCCn3ccnc3)nc3c2c(=O)n(C)c(=O)n3C)cc1 (stereo unspecified)	101	8	/	/
COC(=O)c1sc(N)c(C(=O)OC)c1CSc1nc2sc3c(c2c(=O)n1C)CCC3	/	-22	58	82
CC(Oc1ccc(/C=c2/sc3nc4ccccc4n3c2=O)cc1)C(=O)O (stereo unspecified)	105	-76	95	86
CCOc1ccc(C2C(C#N)=C(SCc3ccccc3)NC(=O)C2C(=O)OC)cc1 (stereo unspecified)	99	-25	/	/
c1ccc(C2CC3CCCCC3CO2)cc1 (stereo unspecified)	98	/	91	86
O=C(O)CSCc1nc2ccccc2[nH]c1=O	145	52*	88	84
Cc1cc(C(=O)Nc2ccc(Cl)cc2)n[nH]1	108	-8	/	/
Cn1nnnc1SCCNCc1ccc(F)cc1	102	/	138	88
Cc1ccsc1C(=O)OCC(=O)c1ccccc1	/	4	103	94
COC(=O)C1CCN(c2csc3ccc(C)cc3c2=O)CC1	103	/	88	85
COc1ccc(NC(=O)c2cnc(N3CCCC3)nc2)cc1OC	106	/	87	89
CC(=O)Nc1nc2cc(NC(=O)C3CCCN(S(=O)(=O)N4CCCC4)C3)ccc2s1 (stereo unspecified)	105	-19	/	/
COc1cccc(NC(=O)c2cccc3c2SCCC3=O)c1	105	-26	80	81
CCOC(=O)Cn1c(=O)c2c(nc3n2CCN3c2ccc(CC)cc2)n(C)c1=O	104	/	123	100
Cc1ccc(NC(=O)C2CC2C)c(Cl)c1 (stereo unspecified)	/	-23	96	94
COc1ccc(-c2noc(C3CC(=O)N(c4ccccc4)C3)n2)c(OC)c1 (stereo unspecified)	93	/	82	94
O=C(c1cccc(S(=O)(=O)N2CCOCC2)c1)N1CCSC1=NCc1ccccc1	/	-9	77	83
Cc1sc2ncn3c(=O)c4ccccc4nc3c2c1C	/	-18	80	88
CC(C)(C)c1ccc(S(=O)(=O)c2c[nH]c3ccccc3c2=O)cc1	99	-22	/	/
CC(C)N1CCC(NS(=O)(=O)c2c(F)cc(F)cc2Br)CC1	/	-33	70	88
O=C(Cn1nc(-c2ccccc2)ccc1=O)NCCCN1CCCC1	107	/	95	80
Cc1ccc2scc(CC#N)c2c1	105	-14	94	82
O=S1(=O)CC2N=C(N/N=C/c3ccccc3)SC2C1 (stereo unspecified)	/	9	90	100
c1ccc(NN=C2CCCCCCC2)cc1	95	-12	116	95
COc1ccc(Oc2c(F)c(F)nc(F)c2Cl)cc1	104	/	104	88
O=C(CC1CCCCC1)NCCn1c(C(F)(F)F)nc2cccnc21	100	-11	/	/
C=CCC(CC=C)(C(N)=O)c1ccccc1	101	3	96	97
Cc1ccc(NC(=O)c2cc(-c3cccs3)on2)cc1C	101	3	96	91
CC(C)(C)C(=O)NC1CCNCC1	104	5	95	106
COc1ccc2c(c1)nc(NCCCO)n2Cc1ccccc1	/	-28	99	86
Cc1oc(-c2ccccc2)cc1C(=O)NCc1ccncc1	100	-6	83	76
CC(Sc1nc2c([nH]1)c(=O)n(C)c(=O)n2C)C(=O)O (stereo unspecified)	85*	-11	/	/
CCOC(=O)c1cc(-c2ccc(S(=O)(=O)NCC3CCCN3CC)s2)on1 (stereo unspecified)	111	-52	96	98
O=C(CSc1n[nH]c(=O)n1Cc1ccccc1)NC(=O)Cc1ccccc1	/	-13	111	100
O=C(NCc1cc2ccccc2s1)c1ccc(N2CCOCC2)nc1	100	-5	98	105
O=C(NC1CC1)c1ccc(Cn2c(SCc3ccc(F)cc3Cl)nc3ccncc32)cc1	105	0	/	/
COC(=O)c1ccc(Oc2ccc(C3SCCS3)cc2)o1	105	28	90	84
Cc1nc2ccccc2n1CCc1nc2c3ccccc3nc(NCCC3=CCCCC3)n2n1	100	7	/	/
Nc1nc(COC(=O)c2cc(S(=O)(=O)NC3CC3)ccc2Br)nc(Nc2ccccc2)n1	/	-1	100	95
Cc1cc(C)cc(NC(=O)c2ocnc2C)c1	106	-14	104	89
CS(=O)(=O)c1nncn1-c1ccccc1	107	-17	98	97
Cc1ccc(CN2CCN(C3CCN(S(=O)(=O)N(C)C)CC3)C(=O)C2=O)cc1	104	/	84	93
CC(C)Oc1cccc(-c2nc(-c3ccccn3)no2)c1	105	13	89	93
Cc1ccc(-n2c3c(c(=O)[nH]c2=O)C(NC(=O)c2ccccc2F)(C(F)(F)F)C(=O)N3)cc1C (stereo unspecified)	102	-17	106	88
Cc1nc(NC(=O)c2csnn2)sc1C	108	15	/	/
CC(=O)NC1=NN(C(C)=O)C2(S1)C(=O)Nc1ccccc12 (stereo unspecified)	99	-4	108	87
O=S(=O)(N=Nc1c(O)n(CO)c2ccccc12)c1ccc(Br)cc1	/	-41	103	97
CCN(CC)CCNc1cc(-c2cccs2)nc2ccccc12	101	-12	94	78
CC(Sc1n[nH]c(-c2cccs2)n1)C(=O)Nc1ccc(C(N)=O)cc1 (stereo unspecified)	/	-27	116	94
COc1cccc(C2C(C(=O)Nc3ccccc3OC)=C(C)Nc3nc4ccccc4n32)c1 (stereo unspecified)	103	6	104	97
COC(=O)c1ccccc1NS(=O)(=O)c1cccc2c1C(=O)c1ccccc1C2=O	104	-22	/	/
CCCCn1c(N)c(C(=S)NC(=O)CC(C)C)c(=O)n(C)c1=O	/	-12	110	61
Cc1cccc(-c2noc(-c3ccno3)n2)c1	101	4	99	95

Assay outcomes as filed in PubChem BioAssay.
